MT1-MMP act inh – blockers of MT1-MMP proenzyme processing, primary screen, HT1080 RFP-PRO-GFP cells, GFP/RFP fluorescence; 0.061% of 360,000 active; GFP/RFP ratio change, % at 20 µM; GFP/RFP ratio fluorescence, overnight; percent of plate control window, DMSO zero;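 active = GFP/RFP ratio change of at least 30% with cell ATP level not reduced by more than half and red fluorescence within 50% of control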; note: strong numbers were not always called active
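Assay system: HT1080 RFP-PRO-GFP cells. Benchmarks: DMSO vehicle wells and RFP-L50D-GFP reporter cell wells. Times: overnight cell settling, then overnight compound exposure, 37 °C, 5% CO2. Compound: 20 µM single dose, 1% DMSO. Read-out basis: GFP/RFP fluorescence ratio.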
Env fusion inh – inhibitors of HIV-1 Env-driven cell-cell fusion, primary screen, HeLa-JRFL effector, CEM21 target cells, luciferase; inhibition, % at 12.3 µM; 1.1% of 360,000 active;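 active = mean replicate inhibition score of at least 50 and every replicate individually at or above 50; inconclusive = only one of the two criteria met; inactive = mean below 50 and not all replicates reaching 50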;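 note: 0% = plate neutral controls and 100% = maraviroc near 300 nM; one replicate is shown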
MT1-MMP act inh RFP – second read-out of MT1-MMP act inh, no call of its own (marks repeat the call); RFP signal change, %; measured here: RFP expression control read;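 0 = vehicle wells; hits needed this value within 50% of zero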
The depositor's hits bear a star; ? = inconclusive. The list is partial; the hit share may differ from the screen's.

Start of the data: the first 3 entries (preview)
SMILES | MT1-MMP act inh | MT1-MMP act inh RFP | Env fusion inh
O=C(Nc1ccc(F)cc1)C(CCc1ccccc1)N1CCN(C(=O)c2ccco2)CC1 (stereo unspecified) | 2.2 | -4.6 | 20.4
OC[C@@H]1CN(Cc2cccs2)C[C@H](n2cnc3c(NC4CCC4)ncnc32)O1 | 3.2 | 2.6 | 2.5
COc1cccc(-c2nc(-c3cccc(C)c3)nc3cc(Cl)ccc23)c1 | -0.6 | 1.6 | -4.6

Main list, repeating the preview:
SMILES | MT1-MMP act inh | MT1-MMP act inh RFP | Env fusion inh
O=C(Nc1ccc(F)cc1)C(CCc1ccccc1)N1CCN(C(=O)c2ccco2)CC1 (stereo unspecified) | 2.2 | -4.6 | 20.4
OC[C@@H]1CN(Cc2cccs2)C[C@H](n2cnc3c(NC4CCC4)ncnc32)O1 | 3.2 | 2.6 | 2.5
COc1cccc(-c2nc(-c3cccc(C)c3)nc3cc(Cl)ccc23)c1 | -0.6 | 1.6 | -4.6
Cc1nc2ccc(Cl)cc2n1C | 4.6 | 3.0 | -2.2
COCCN1C(=O)c2ccccc2C1c1nnnn1Cc1ccccc1 (stereo unspecified) | 1.9 | 4.4 | -3.1
CC1(C(=O)NCCc2c[nH]c3ccccc23)CCN1Cc1ccccc1OC(F)F (stereo unspecified) | -1.4 | -8.2 | -40.2
CC(=NNC(=S)N1CC2CCC(CC2)C1)c1cccc(C)n1 | 0.9 | 4.4 | ?
Cc1cc(C)n2c(Nc3c(C)cccc3C)c(CCc3ccccc3)nc2n1 | 2.6 | -1.6 | -30.9
O=C1CC(=O)N(C2CCCCC2)C(=O)N1c1ccccc1S(=O)(=O)Oc1ccccc1 | -10.8 | 5.9 | -10.6
Fc1ccc(-c2nc3c(Cl)cc(C(F)(F)F)cn3c2Cc2cccc(Cl)c2)cc1 | -3.0 | -2.5 | 9.2
O=C(NCCCCCCCCNC(=O)c1cccc2ccccc12)c1cccc2ccccc12 | 5.2 | 1.8 | 23.5
O=C(NCCc1cccs1)c1ccc(CS(=O)Cc2cccc(Cl)c2)o1 (stereo unspecified) | 2.2 | -0.2 | 26.4
COC(=O)[C@H]1C[C@H](OC(=O)NC2CC2)[C@@]2(O)CN(S(=O)(=O)c3ccc(C)cc3)CC2[C@H]1C(=O)OC (stereo partly specified) | 2.6 | 5.4 | -23.1
Cn1[nH]cc(C=NC(N)=O)c1=O | -0.6 | 3.8 | -14.8
O=C(NCCN1CCC(n2c(=O)[nH]c3ccccc32)CC1)c1cccs1 | -0.2 | -1.3 | 9.2
CC(=O)N(Cc1ccccc1)C1CC(=O)N(Cc2ccccc2)C1=O (stereo unspecified) | 2.3 | 1.6 | 1.8
O=C(NCc1ccccc1)C(c1ccc(C(F)(F)F)cc1)N1CCN(CCN2CCOCC2)CC1 (stereo unspecified) | -5.0 | -1.4 | 19.8
COc1ccc(NC(=O)C[C@H]2C(=O)N(c3ccc(OC)cc3)C[C@@H]2C)cc1 | 2.1 | 1.0 | 3.8
COC(=O)C1(C(=O)OC)C2CCCCC2N(S(=O)(=O)c2ccc(C)cc2)[C@@H]1CC(C)=O (stereo partly specified) | 5.6 | 2.9 | 24.0
O=C1C=C(OCCCl)CC(c2cccc(Cl)c2)O1 (stereo unspecified) | 9.3 | 3.9 | -5.3
C=CCC[C@H](CCCCC)OC(=O)/C=C/[C@H](O)[C@@H](O)C[C@H](O)CC=C | 4.5 | -1.3 | 12.7
CC(C(=O)NC1CCCCC1)N1CCN(S(=O)(=O)c2cccs2)CC1 (stereo unspecified) | 1.6 | 1.6 | -1.1
CN(C)c1nc(N)c(C#N)c(C#N)c1C#N | -4.4 | 3.0 | -165.8
COC(=O)c1ccc2nc(-c3ccc(C#N)cc3)c(Cc3cccc(Cl)c3)n2c1 | -3.0 | -1.0 | -5.6
O=C(NCc1ccccc1)C1C(c2ccc3c(c2)OCO3)=Nc2ccccc2N1C(=O)c1ccco1 (stereo unspecified) | -0.7 | 0.2 | -13.9
COC1OC2COC(c3ccccc3)OC2C(NC(C)=O)C1OC(C)=O (stereo unspecified) | 1.5 | -2.0 | -34.1
CCC1(c2ccccc2)NC(=O)N(CC(=O)N(c2ccccc2)C2CCS(=O)(=O)C2)C1=O (stereo unspecified) | 4.0 | 3.1 | 1.8
O=C(Nc1cccc(S(=O)(=O)N2CCOCC2)c1)C12CC3CC(CC(C3)C1)C2 | -4.9 | -5.6 | 15.6
COC(=O)C1=CN(c2ccc(C)cc2)C(N)=C(C#N)C1c1ccc(OC)cc1 (stereo unspecified) | 3.8 | 3.7 | 11.5
COc1ccccc1C=C1SC(=S)NC1=O | -1.7 | 6.7 | -20.9

Single values from above:
`O=C(NCc1ccccc1)C1C(c2ccc3c(c2)OCO3)=Nc2ccccc2N1C(=O)c1ccco1` (stereo unspecified) in MT1-MMP act inh RFP: 0.2
`COC(=O)C1=CN(c2ccc(C)cc2)C(N)=C(C#N)C1c1ccc(OC)cc1` (stereo unspecified) in MT1-MMP act inh RFP: 3.7

(continued)
SMILES | MT1-MMP act inh | MT1-MMP act inh RFP | Env fusion inh
CC(C)C[C@@H](COCc1ccc(Cl)cc1)N1CCN(C(=O)c2ccc(Cl)cc2Cl)CCC1=O | -4.1 | -10.9 | -24.6
Cc1ccccc1-c1cnc(C(O)c2ccc(-c3ccccc3)cc2)[nH]1 (stereo unspecified) | 5.6 | -2.1 | -17.4
O=C1NC[C@@H](CCCCN2CCN(CC3CCCCC3)C(=O)C2=O)N(CCC2CCCCC2)C1=O | 6.7 | 7.9 | -63.9
CCCCCNC(=O)C(c1ccnc2ccccc12)n1c(=O)c(-c2cc3ccccc3[nH]2)nc2ccccc21 (stereo unspecified) | -12.7 | -16.2 | 10.8
CC(C)NC(=O)C1(C)CN(S(C)(=O)=O)CC(=O)N1CCCN1CCOCC1 (stereo unspecified) | 3.9 | 9.5 | -12.1
Cc1cccc(C)c1-n1nnnc1C(c1ccnc2ccccc12)N1CCN(CC(=O)NC(C)C)CC1 (stereo unspecified) | -0.1 | 0.4 | -6.5
COC(=O)/C=C\C(C#N)(C#N)N=Cc1ccc(OC)cc1 | -8.1 | 1.8 | 9.6
CCN(C)C1CN(Cc2cn(CCCC(=O)OC)nn2)S(=O)(=O)C1 (stereo unspecified) | 1.2 | 5.5 | -40.1
OCC1OC(n2cnc3c(NCc4ccco4)ncnc32)C(O)C1O (stereo unspecified) | 16.4 | 1.7 | 69.8*
COc1ccc(NC(=O)C2(C)CCN2Cc2ccc(SC)cc2)cc1OC (stereo unspecified) | 0.3 | -6.8 | 35.7

Entries above shown as hits in Env fusion inh.
SMILES | MT1-MMP act inh | MT1-MMP act inh RFP | Env fusion inh
OCC1OC(n2cnc3c(NCc4ccco4)ncnc32)C(O)C1O (stereo unspecified) | 16.4 | 1.7 | 69.8*

Continued:
SMILES | MT1-MMP act inh | MT1-MMP act inh RFP | Env fusion inh
Cc1ccccc1CN1C(=O)c2ccccc2C1c1nnnn1-c1ccc2c(c1)OCCO2 (stereo unspecified) | 1.9 | -7.6 | -158.9
CCCC[C@@H]1CC2=C(C(=O)OC(C)(C)O2)[C@@H](c2ccc(Cl)cc2)O1 | 0.3 | -1.6 | -27.1
CCCCCCCCN1C(=O)[C@H](CC(=O)NCc2cccs2)C[C@@]2(C(=O)OC)CC(C)(C)CC=C12 | -10.0 | -10.8 | 26.2
N#C/C(=C/c1ccc(-c2ccc(S(=O)(=O)N3CCOCC3)cc2)o1)C(=O)NC1CC1 | -4.6 | -3.7 | 17.3
CC(C)(C)C(=O)c1c(N)[nH]c(C(=O)c2ccccc2)c1-c1ccc(C(F)(F)F)cc1 | -0.8 | 0.6 | 19.3
CC(C)C[C@H]1CN([C@@H](CC(C)C)CN2CCC[C@H]2CN2C(=O)C(=O)NC[C@@H]2Cc2ccccc2)C(=O)C(=O)N1CCc1ccccc1 | 6.0 | -0.1 | -27.5
CN1CCN(C(=O)C2=NOC3(C2)C(=O)Nc2ccccc23)CC1 (stereo unspecified) | 1.5 | 2.5 | 6.2
CCOc1ccc(-c2nnc3ccc(SCC(=O)N4CCN(c5ccccc5)CC4)nn23)cc1 | -6.1 | -0.5 | -234.1
O=C1c2c(-c3ccc(Br)cc3)noc2CCN1Cc1cn(Cc2cccnc2)nn1 | 5.6 | -13.6 | 18.0
CC(C)(C)c1ccc(C(O)c2ncc(-c3ccc4ccccc4c3)[nH]2)cc1 (stereo unspecified) | 2.7 | -0.5 | -9.8
CCOc1ccc(CCN2C(=S)N([C@@H](Cc3ccccc3)CN3CCC[C@@H]3CN3C(=S)NC[C@@H]3CC(C)C)C[C@@H]2Cc2ccccc2)cc1 | 7.5 | 0.4 | -33.3
CCC(C)CN1C(=O)CSCC1(C)C(=O)Nc1ccc2c(c1)OCCO2 (stereo unspecified) | 2.3 | 4.2 | 1.5
COc1ccc(CN2C(=O)c3ccccc3C2c2nnnn2-c2c(C)cccc2C)cc1OC (stereo unspecified) | -4.9 | -1.3 | -3.0
COc1cc(CNC[C@H]2O[C@@H](n3ccc(N)nc3=O)[C@H](O)[C@@H]2O)ccc1OCc1ccc(C)cc1 | -0.9 | 0.5 | -57.9
CCCCCCCCN1C(=O)[C@H](CC(=O)N2CCN(C(=O)c3ccco3)CC2)C[C@@]2(C(=O)OC)CC(C)(C)CC=C12 | 3.6 | -8.6 | -18.0
O=C(NCc1ccco1)c1ccc(C(=O)NCc2ccco2)cc1 | -5.7 | 4.0 | -7.1
CCC(c1nnnn1-c1c(C)cccc1C)N1CCN(c2ccccn2)CC1 (stereo unspecified) | 3.4 | -3.6 | -5.2
Cc1ccc2nc(-c3cccc(Cl)c3)c(Cc3ccccc3)n2c1 | 1.7 | -3.8 | 5.1
Oc1ccc(Cl)cc1C=NN1CCCCCC1 | 4.9 | 2.9 | -100.8
O=C(Cc1cccc2c(=O)cc(-c3ccccc3)oc12)OCCN1CCOCC1 | 0.9 | 5.9 | 18.1
CC(C)OC1=CC(=O)OC(c2cccc(Cl)c2)C1 (stereo unspecified) | 2.4 | 6.4 | -7.3
CCCCCc1c(-c2ccccc2OC)ncn1CCc1ccccc1OC | 12.6 | -30.7 | 69.4*
O=C(Nc1cccc(S(=O)(=O)N2CCOCC2)c1)C1CCCCN1S(=O)(=O)c1ccccc1 (stereo unspecified) | 0.7 | -3.4 | 22.4
CC(C)N1C(=O)NC2NC(=O)N(C(C)C)C21 (stereo unspecified) | -0.2 | 3.5 | 10.4
CC(=O)NC1=CC(=C[N+](=O)[O-])C=C1O | 4.7 | -3.1 | -11.5
CC(C)n1nnnc1C1c2ccccc2C(=O)N1Cc1cccs1 (stereo unspecified) | 0.5 | 7.5 | 16.1
CCOC(=O)C1=C(C)NC(C)=C(C(=O)OCC)C1c1ccncc1 | 1.1 | -3.0 | -8.5
CNC(=O)OC1CC2CC1[C@H]1CCCCN1C2=O (stereo partly specified) | 1.3 | 4.9 | 8.7
CC(C)C[C@@H](CN1CCC[C@H]1CN1C(=O)C(=O)NC[C@@H]1Cc1ccccc1)N1C[C@H](Cc2ccc(O)cc2)N(CC2CCCCC2)C(=O)C1=O | 2.9 | 1.5 | -200.9
CC(C)(C)NC(=O)C(c1ccnc2ccccc12)n1c(=O)c(-c2ccccc2)nc2ccccc21 (stereo unspecified) | -1.2 | -7.4 | -13.4
O=C(CC(c1ccccc1)C1CCCCC1=O)c1ccccc1 (stereo unspecified) | -4.4 | -2.4 | 33.4
Nc1nc2ccc(Cl)cc2cc1C(=O)NCCc1ccc(Cl)cc1Cl | -1.3 | -0.5 | 0.7
CC12CCC3(CC1CCC1OC12)OCCO3 (stereo unspecified) | 2.8 | 5.3 | 11.4
Cc1cc(C)c(NS(=O)(=O)c2ccccc2)c(C)n1 | -0.8 | 1.6 | 35.3
Cc1ccc(-c2nc3c4ccccc4ccn3c2Cc2ccccc2C(F)(F)F)cc1 | -8.5 | -3.1 | 19.8
Oc1ccccc1-c1n[nH]c(-c2ccccc2O)n1 | 3.5 | -20.4 | 0.4
Cc1ccccc1N=C1C(=O)Nc2ccccc21 | -0.6 | 7.2 | 1.7
NC1=NN(c2ccccc2)C(=O)C1 | 4.9 | 2.1 | -6.0
O=C(NCc1ccccc1)C(c1ccc(-c2ccccc2)cc1)n1c(=O)c(-c2ccco2)nc2ccccc21 (stereo unspecified) | -0.1 | 5.6 | 2.2
O=C(NC1CCCCCC1)c1cccc(S(=O)(=O)N2CCOCC2)c1 | 5.1 | 0.5 | -5.6
O=S1(=O)CC(N2CC=CC2)CN1Cc1cn(Cc2cccc(Cl)c2)nn1 (stereo unspecified) | 4.4 | 6.5 | -14.9
CC(C)NC(=O)C1C(c2ccc(C(F)(F)F)cc2)=Nc2ccccc2N1C(=O)c1cc2ccccc2[nH]1 (stereo unspecified) | -2.9 | -4.9 | -11.6
C=CCC1(CC=C)CCCN1C(=O)C1CCC(=O)N(Cc2ccc(Cl)cc2)C1 (stereo unspecified) | 3.8 | 0.2 | -12.5
COC(=O)[C@]12CCCCC=C1N(CCC1=CCCCC1)C(=O)[C@H](CC(=O)NCCCCc1ccccc1)C2 | -5.9 | -12.3 | 23.8

Structures shown so far that contain an aryl thioether with sulfur outside any ring, in the order listed:
SMILES | MT1-MMP act inh | MT1-MMP act inh RFP | Env fusion inh
COc1ccc(NC(=O)C2(C)CCN2Cc2ccc(SC)cc2)cc1OC (stereo unspecified) | 0.3 | -6.8 | 35.7
CCOc1ccc(-c2nnc3ccc(SCC(=O)N4CCN(c5ccccc5)CC4)nn23)cc1 | -6.1 | -0.5 | -234.1

Bioassay records: PubChem, several laboratories
